gsp agonist = agonists of gsp mutant (McCune-Albright syndrome). actives 0.13% (n = 340,000). gsp mutant cells, cAMP HTRF, 30 min; control for the full effect not named in the record. Potency, µM (highest dose often 76.9 µM), for inactives: at the top dose activation (cAMP increase), actives largely listed as activators; active = well fitted activation curve with a large enough effect; inconclusive = small, poorly fitted or top-dose-only effect, or another doubt; inactive = no such curve, though single readings can be large or run the other way; cell line not stated here;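 also: phosphodiesterase inhibitor Ro 20-1724 added with compounds to block cAMP breakdown; potency is read from the fitted curve at half-maximal effect; nearly all actives have a fitted effect of over 60% in size; about a fifth of the inactives were tested at one dose only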
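Cells stably selected in G418 were plated at 2000/well, grown 16-24 hr, then given compounds in DMSO with the PDE inhibitor […] (300 uM solution added) for 30 min at 37C; cAMP was read by HTRF.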
TRPML1 blocker = inhibitors of human TRPML1 channel. TRPML1-inducible cells, Ca2+ dye fluorescence, FDSS; active compounds read low; inhibition of EC80 agonist-evoked calcium signal. activity change, negative = inhibition, % (concentration not given with the values). actives 0.02% (n = 390,000). AID 624415; in the data active means activity change below about -50%; inconclusive means about -30% to -50%; inactive means above about -30%;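 also: stimulus is agonist 54-4 at its EC80 concentration; % is scaled to controls: 0 for no effect and ±100 for the full control effect; the text of the record puts the active cut at -80%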
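TRPML1-DL cells, Tet-induced overnight (~16 h, 37 °C) at 1,500 cells/well, were loaded with Ca8 no-wash dye plus quencher for 45-90 min at room temperature. Compounds were pinned during FDSS kinetic reading; agonist 54-4 at EC80 (4 uM final) then added.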
Sfp PPTase inh = blocks B. subtilis Sfp PPTase activity; Biochemical Sfp PPTase activity, qHTS; Potency, µM, without a hit: max response, negative = inhibition, most hits filed as inhibitors; actives 3.5% (n = 310,000); AID 1490; Q9F4F7; active = well fitted inhibition curve with a large enough effect; inconclusive = small, poorly fitted or top-dose-only effect, or another doubt; inactive = no such curve, though single readings can be large or run the other way;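 also: the enzyme is Sfp with the accession as filed and its product quenches rhodamine fluorescence; potency is read from the fitted curve at half-maximal effect; 0% = enzyme reaction without inhibitor and -100% = no enzyme wells; top concentration of the series not given in the record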
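Sfp 15 nM + cpd, 15 min RT; start w/ rhodamine-CoA 5 uM, BHQ-2-YbbR 12.5 uM (final); 50 mM Hepes pH 7.6, 10 mM MgCl2, 0.01% NP-40, 0.01% BSA; read 525/598 nm at 0 and 30 min.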
ClpP mod = qHTS Assay for Activators of ClpP. ATP-dependent Clp protease proteolytic subunit (Bacillus subtilis (strain 168)), P80244. purified B. subtilis ClpP, FRET peptide cleavage, 20 min. Potency, µM (series often up to 57.5 µM), for the others: at the highest dose activity change, negative = active. actives 1.9% (n = 340,000); active = well fitted falling curve with a large enough effect; inconclusive = small, poorly fitted or top-dose-only effect; inactive = no such curve, though single readings can be large or run the other way; also: potency is read from the fitted curve at half-maximal effect; the source files actives as falling curves though it sought activators and does not explain the sign; nearly all actives have a fitted effect of over 65% in size; many hits overshoot -100%
Target sequence (P80244 whole entry, looked up): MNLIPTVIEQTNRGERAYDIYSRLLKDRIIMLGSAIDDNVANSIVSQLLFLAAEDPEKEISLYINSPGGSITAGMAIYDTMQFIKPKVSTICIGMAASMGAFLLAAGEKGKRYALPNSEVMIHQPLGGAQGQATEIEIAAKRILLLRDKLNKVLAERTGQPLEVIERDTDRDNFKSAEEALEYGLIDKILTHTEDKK
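Purified B. subtilis ClpP, 10 microg/mL final in Tris/HCl pH8 with KCl, BSA, glycerol and Tween-20, cleaved an Abz/nitrotyrosine-quenched decapeptide. Fluorescence (ex 320, em 430) was read at 0 and 20 min at room temperature. Delta was normalized to 5.8 microM ADEP and DMSO/no-enzyme controls.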
gsp antag = antagonizes gsp, the McCune-Albright syndrome mutation. gsp-mutant cells, cAMP HTRF, 30 min; control for the full effect not named in the record. Potency, µM (titrated, usually from 76.9 µM), for inactives: at the highest dose activity change, negative = inhibition, usual class: inhibitors. actives 0.4% (n = 340,000); active = falling curve of any shape with a large fitted effect; inconclusive = falling curve, mostly with a smaller effect; inactive = flat or rising curve; cell line not stated here;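 also: intracellular cAMP measured with PDE inhibitor Ro 20-1724 present during compound exposure; potency is read from the fitted curve at half-maximal effect; % is scaled to controls: 0 for no effect and ±100 for the full control effect; nearly all actives have a fitted effect of over 65% in size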
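Cells in G418 medium, seeded 16-24 h, 37C; buffer exchange to DPBS + 1 mM CaCl2, 0.5 mM MgCl2, 0.05% BSA; cpds in DMSO + […] (300 uM stock), 30 min 37C; HTRF cAMP detection.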
TRPV1 potentiator = human TRPV1 potentiation | actives 0.02% (n = 320,000) | TRPV1-expressing cells, Fluo-8 calcium influx, capsaicin EC20 potentiation; host cell line not named in the record; control for the full effect not named in the record | Q8NER1 | potentiation, % at 8.33 µM; active means potentiation above 80%; inconclusive means 30% to 80%; inactive means below 30%; also: 0% is about no effect
Target sequence (Q8NER1 whole entry, looked up): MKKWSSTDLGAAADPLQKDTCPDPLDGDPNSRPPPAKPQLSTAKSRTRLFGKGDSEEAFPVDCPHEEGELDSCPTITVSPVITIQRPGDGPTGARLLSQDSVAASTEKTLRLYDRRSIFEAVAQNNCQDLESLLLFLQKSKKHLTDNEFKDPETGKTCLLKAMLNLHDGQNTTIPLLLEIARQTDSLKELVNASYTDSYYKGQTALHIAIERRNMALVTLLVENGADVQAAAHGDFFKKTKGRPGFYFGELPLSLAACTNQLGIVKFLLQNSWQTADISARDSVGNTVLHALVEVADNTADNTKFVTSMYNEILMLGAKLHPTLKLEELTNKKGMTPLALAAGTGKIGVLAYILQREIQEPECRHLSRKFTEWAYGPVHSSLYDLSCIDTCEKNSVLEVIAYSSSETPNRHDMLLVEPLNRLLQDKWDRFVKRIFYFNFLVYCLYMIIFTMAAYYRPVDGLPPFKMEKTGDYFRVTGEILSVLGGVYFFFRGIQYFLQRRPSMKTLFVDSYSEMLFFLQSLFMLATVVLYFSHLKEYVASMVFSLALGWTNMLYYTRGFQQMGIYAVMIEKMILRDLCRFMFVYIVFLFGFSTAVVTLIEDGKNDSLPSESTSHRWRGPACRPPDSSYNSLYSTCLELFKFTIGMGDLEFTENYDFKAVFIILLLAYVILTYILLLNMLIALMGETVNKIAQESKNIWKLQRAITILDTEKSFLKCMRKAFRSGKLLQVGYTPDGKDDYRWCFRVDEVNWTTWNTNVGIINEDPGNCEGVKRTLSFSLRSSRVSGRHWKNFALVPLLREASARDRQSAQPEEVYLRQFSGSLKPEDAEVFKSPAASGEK
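Cells expressing TRPV1 were dye-loaded with Fluo-8 and read kinetically: 10 s baseline, 3 min after compound (agonist portion), then 2 min after EC20 capsaicin (allosteric enhancer portion). Calcium-bound dye fluorescence at 480/520 nm.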
Menin-MLL FL inh = menin-MLL binding inhibition, fluorescein peptide; Fluorescence polarization, fluorescein-MLL peptide displacement from menin; FP activity change, % at 61.4 µM; 290,000 tested, under 10 active; inconclusive = falling polarisation curve, or a change in total fluorescence; inactive = total fluorescence flat and polarisation flat or rising; no compound was filed as active; the % refers to the polarisation; negative = inhibition;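 also: % of control where 0% means no effect; inhibitors lower the polarisation; unlabelled MLL peptide was the positive control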
Starred values were filed as active, the others as inactive; u = inconclusive; x = no result given; & = joins results of further samples; [ ] = dose if it differs, or a comment.

Molecule	gsp agonist	TRPML1 blocker	Sfp PPTase inh	ClpP mod	gsp antag	TRPV1 potentiator	Menin-MLL FL inh
CCC1=NN(C(=O)c2ccccc2Br)C(O)(c2ccc(Br)cc2)C1 (centres undefined)	-19%	-19	9%	-2.3%	6%	-7	2.3
CCN(CC)CCNC(=O)c1ccc(NC(=O)c2ccc(Cl)c(S(=O)(=O)N3CCCCCC3)c2)cc1	18%[15.4 µM]	2	50µM*	x	3%	-9	1.6
CNC(=O)c1c(NC(=O)c2ccc(S(=O)(=O)N3CC(C)OC(C)C3)cc2)sc2c1CCN(C(C)C)C2 (centres undefined)	-7%[15.4 µM]	-6	7%	0.7%	0%	-9	x
O=C(CSc1ccccc1)Nc1cccc(NC(=O)c2ccco2)c1	-34%[inhibitor]	-5	-2%	-1.6%	-7%	10	1.7
C[C@@H]1CC[C@]2(C(=O)O)CC[C@]3(C)C(=CCC4[C@]56CC[C@@](O)(OC5)C(C)(C)C6CC[C@]43C)C2[C@H]1C (some centres undefined)	x	x	x	2.0%	-19%	-7	x
COc1ccccc1Oc1ccc(N2CC(C(=O)OCC(=O)c3ccc(F)cc3)CC2=O)cc1 (centres undefined)	u	0	-2%	2.0%	-26%	0	1.7
CCOc1ccc(C2C(=O)N(C3CCCCC3)CC(=O)N2CC2CCCO2)cc1OC (centres undefined)	u	-5	26%	-2.2%	-3%	-4	1.1
Cc1cc2oc3c(c(=O)c2cc1C)C(c1ccc(C(C)C)cc1)N(CCCN1CCOCC1)C3=O (centres undefined)	-23%	-4	-16%	-0.9%	-5%	4	-3.0
Cc1ccc(C(C)n2cc(C(=O)NCCN3CCN(C)CC3)nn2)cc1 (centres undefined)	-3%	3	1%	-4.3%	8%	-1	-1.6
Cc1ccc2oc(=O)cc(CN3CCN(C/C=C/c4ccccc4)CC3)c2c1	-3%[15.4 µM]	11	11%	x	-25%	1	2.1
COc1nc(NC2OC(CO)C(O)C(O)C2O)c(N)c(=O)[nH]1 (centres undefined)	8%	16	x	-7.0%	12%	x	x
COc1ccc2c(CC(=O)OCC(=O)c3ccc(F)cc3)coc2c1	8%	-14	9%	-1.3%	13%	-5	0.0
CCOC(=O)c1cnc(SCC(=O)c2ccc3c(c2)OCCO3)nc1N	-3%	-9	-23%	-2.0%	-12%	0	-0.1
Cc1c(NC(=O)/C(=C/c2cccs2)NC(=O)c2ccccc2)c(=O)n(-c2ccccc2)n1C	-15%[15.4 µM]	0	3%	x	9%	-12	0.9
CCN(CC)C(=O)[C@H]1CC(CC(=O)NCCC2=CCCCC2)C(=O)N2CCc3c([nH]c4ccc(OC)cc34)[C@]12C (some centres undefined)	x	19	x	-2.5%	-14%	x	x
CC(=O)C(Cc1ccccc1)NC(=O)COC(=O)c1ccc(-n2cnnn2)cc1 (centres undefined)	4%[15.4 µM]	15	x	-2.1%	-9%	x	x
Cc1nn(Cc2noc(C(=O)NCc3ccccn3)n2)c(C)c1Br	8%	3	-7%	-1.0%	9%	-17	x
CC(C)CC(NC(=O)c1ccc(C#CC(C)(C)O)s1)C(=O)O (centres undefined)	u	-13	10%	x	1%	6	0.7
COc1ccc(C(OC(=O)c2ccco2)C(=O)NC2CCCC2)cc1OC (centres undefined)	u	4	9%	x	4%	12	-0.6
CC12CCC(=O)N1C(C(=O)NCCc1ccc(S(N)(=O)=O)cc1)CS2 (centres undefined)	-12%	14	-13%	-4.6%	-12%	-2	x
COc1ccc(NC(=S)NC(NC(C)=O)C(Cl)(Cl)Cl)c([N+](=O)[O-])c1 (centres undefined)	29%[15.4 µM]	-3	-17%	x	4%	-1	4.2
COC(=O)c1c(-c2ccc(C)cc2)csc1N	11%	31	45µM*	-5.1%	-15%	-2	-4.5
CSc1ccccc1-c1nnc(-c2ccc(Cl)c(Cl)c2)o1	9%	8	-10%	u	-4%	-10	-0.2
CS(=O)(=O)c1ccc(C(=O)OCC(=O)NC23CC4CC(CC(C4)C2)C3)cc1[N+](=O)[O-]	-1%[15.4 µM]	-5	0%	-2.4%	0%	9	5.8
COC(=O)c1cc(NC(=O)c2cc3ccccc3o2)cc(C(=O)OC)c1	30%	x	3%	0.1%	-29%	-2	-0.9
O=C(COC(=O)c1ccco1)NCCNC(=O)COC(=O)c1ccco1	-101%[inhibitor]	6	8%	-4.2%	11%	-10	x
COc1ccc(N2C(=NC(=O)C3CCCCC3)SC3CS(=O)(=O)CC32)cc1Cl (centres undefined)	2%	36	23%	-0.1%	4%	6	1.6
Cc1ccc(CNC(=O)CS(=O)(=O)c2cn(CC(=O)N3CCOCC3)c3ccccc23)cc1	-19%	-12	40µM*	-1.4%	10%	3	x
Cc1ccc(S(=O)(=O)N2CCN(CCO)CC2)cc1-c1nnc2c3ccccc3c(C)nn12	21%	24	x	-11%	6%	x	x
O=C(COC(=O)c1c(Cl)cccc1Cl)Nc1ccccc1Br	3%	23	-5%	-20%	-19%	7	6.0
COc1ccc(S(=O)(=O)N2CCCCC2)cc1NC(=O)CCC(=O)N1CCC(c2ccccc2)=N1	-17%	13	x	-3.4%	-1%	x	x
CCCn1c(=O)c2c(nc3n2CCS3)n(C)c1=O	u	0	17%	x	0%	14	0.0
CCCc1nc2ccccc2c(=O)n1NC(=O)c1c(O)c2ccccc2n(C)c1=O	1%[15.4 µM]	-1	-1%	-14%	u	u	-2.5
C=CCn1c(SCC(=O)Nc2nc(C)cs2)nnc1C(NC(=O)c1ccccc1)C(C)C (centres undefined)	-11%	1	4%	0.9%	-3%	-6	0.2
CN1C(=O)NC(=O)C1c1ccccc1 (centres undefined)	4%	12	x	x	2%	x	x
O=C(N/N=C/c1cccn1-c1ccc([N+](=O)[O-])cc1)c1cccnc1	-17%[15.4 µM]	-5	-16%	x	-3%	-30	5.0
CC(Sc1ccccc1)C(=O)N1CCN(S(=O)(=O)c2ccc(Cl)cc2)CC1 (centres undefined)	-9%[15.4 µM]	-10	15%	x	-2%	-4	2.2
Cc1onc(-c2ccccc2Cl)c1C(=O)Nc1cnn(Cc2ccccc2)c1	-22%	-27	4%	-1.0%	5%	-12	2.6
CCOCCCNC(=O)Cn1cnc2c(cnn2-c2ccc(C)c(C)c2)c1=O	-15%	-2	6%	x	-3%	3	-2.7
O=C(NC1CC2CCCC(C1)N2C(=O)NCc1ccccc1)C1CC1 (centres undefined)	14%	-12	-9%	-1.4%	11%	-3	2.2
CC(C)CC(CO)N1CCN(C(=O)c2ccc(Cl)cc2)CCC1=O (centres undefined)	x	2	x	0.4%	10%	x	x
COc1ccc(CN2C(=NC(=O)c3ccccc3)SC3CS(=O)(=O)CC32)cc1OC (centres undefined)	2%	15	6%	-1.2%	5%	-2	x
O=C(COc1ccccc1)Nc1nnc(S(=O)(=O)N2CCCC2)s1	u	-1&20	5%	-2.2%&-2.8%	-17%	6	3.8
CCC(OCC(O)CN1CCCCC1)c1ccccc1 (centres undefined)	0%	-5	8%	1.4%	1%	17	2.3
Cc1[nH]c2ccc(-c3n[nH]c(=S)n3C)cc2c1C	-1%	-17	-13%	-21%	2%	-6	-1.3
Cc1cccc(NC(=O)CCC(=O)N/N=C/c2ccco2)c1C	1%	0	-21%	3.9%	9%	-6	0.8
Cc1ccc(S(=O)(=O)N/N=C\c2ccc3c(c2)OCO3)c(C)c1	21%	-5	-5%	-0.9%	3%	5	x
COc1cccc(C(=O)NNC(=O)c2ccc(NS(=O)(=O)c3cccs3)cc2)c1OC	-32%	13	x	-0.5%	-11%	6	x
COc1ccc(NC(=S)N2CCC(C(=O)c3ccc(C)cc3)CC2)c(OC)c1	22%	18	12%	0.9%	5%	5	1.5
COc1cc(C2CC(=O)c3cnc(NC(=O)c4ccco4)nc3C2)cc(OC)c1OC (centres undefined)	19%[15.4 µM]	-9	7%	x	u	0	4.0

Continued; it opens with the two that closed the last part.
Molecule	gsp agonist	TRPML1 blocker	Sfp PPTase inh	ClpP mod	gsp antag	TRPV1 potentiator	Menin-MLL FL inh
COc1ccc(NC(=S)N2CCC(C(=O)c3ccc(C)cc3)CC2)c(OC)c1	22%	18	12%	0.9%	5%	5	1.5
COc1cc(C2CC(=O)c3cnc(NC(=O)c4ccco4)nc3C2)cc(OC)c1OC (centres undefined)	19%[15.4 µM]	-9	7%	x	u	0	4.0
CC(=O)c1cnc(Nc2cccc(Cl)c2Cl)s1	20%[15.4 µM]	-9	0%	x	-20%	-6	1.8
NS(=O)(=O)c1ccc(NC(=O)CSc2ccccn2)cc1	u	7	79µM*	1.2%	10%	12	0.0
NCC(c1ccccc1)(c1ccccc1)c1ccccc1	-50%[inhibitor]	5	4%	1.1%	13%	-4	1.4
O=C(O)c1cccc(S(=O)(=O)Nc2ccccc2Cc2ccccc2)c1	-3%	1	9%	x	-2%	-8	3.5
COc1ccc(/C=N/OCC(=O)N2CC3(C)CC2CC(C)(C)C3)cc1OC (centres undefined)	4%	1	-3%	0.3%	-1%	-5	2.5

High-throughput results: PubChem, National Center for Advancing Translational Sciences (NCATS)

Rows were taken by chance (roughly 4.9% active in at least one column).
